# Source: PubChem
# HIV Env fusion: inhibitors of HIV Env-mediated cell fusion; inhibition, % at 12.3 µM; AID 651610; HeLa-JRFL Env/CEM21 cell fusion, luciferase; 360,000 compounds, 1.1% hits;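 active = mean replicate inhibition score of at least 50 and every replicate individually at or above 50; inconclusive = only one of the two criteria met; inactive = mean below 50 and not all replicates reaching 50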;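 also: 0% = plate neutral controls and 100% = maraviroc near 300 nM; one replicate is shown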
# An asterisk follows results filed as active; ? = inconclusive; [ ] = remark or other dose. A portion of the library; count on the stated rates, not on these rows.
SMILES,HIV Env fusion
COC(=O)C[C@H]1C=C[C@H](NC(=O)Nc2ccc(C(F)(F)F)cc2)[C@@H](CO)O1,-1[16.7 µM]
COc1ccc(S(=O)(=O)N(C)C[C@H]2Oc3ccc(NS(=O)(=O)c4ccc(F)cc4)cc3CC(=O)N([C@@H](C)CO)C[C@H]2C)cc1,1[16.7 µM]
C[C@@H]1CN([C@@H](C)CO)C(=O)c2cc(NC(=O)Cn3cnnn3)ccc2O[C@H]1CN(C)S(=O)(=O)c1ccc(Cl)cc1,-21[16.7 µM]
CCCN(C)C[C@H]1Oc2cc(C3=CCCCC3)ccc2S(=O)(=O)N([C@@H](C)CO)C[C@H]1C,11[16.7 µM]
O=C(C(=O)N1CCN(S(=O)(=O)c2cccc3ccccc23)CC1)c1cccc(C(F)(F)F)c1,20
COc1ccc(NC(=O)N(C)C[C@H]2OCCCC[C@H](C)Oc3ccc(NC(=O)c4ccccc4)cc3C(=O)N([C@H](C)CO)C[C@H]2C)cc1,-7[16.7 µM]
C[C@@H]1CN(S(=O)(=O)C(C)(C)C)[C@@H](CCO)/C1=C\CCO,5
C[C@@H]1CCCCO[C@H](CN(C)Cc2ccncc2)[C@H](C)CN([C@H](C)CO)C(=O)c2cc(NC(=O)Nc3ccccc3)ccc2O1,-42[16.7 µM]
COc1cccc(CNC(=O)c2cc3c(c(-c4cccc(-c5ccncc5)c4)n2)[C@@H](CCO)N([S@](=O)C(C)(C)C)C3)c1,6[16.7 µM]
C[C@@H]1CN([C@H](C)CO)C(=O)c2ccccc2-c2ccccc2CO[C@H]1CN(C)S(=O)(=O)c1ccc(Cl)cc1,11[16.7 µM]
CC(C)NC(=O)N(C)C[C@H]1Oc2ncc(-c3cncnc3)cc2C(=O)N([C@H](C)CO)C[C@@H]1C,-2[16.7 µM]
CNC[C@H]1OCCCC[C@@H](C)Oc2ccc(NS(C)(=O)=O)cc2C(=O)N([C@H](C)CO)C[C@@H]1C,-2[16.7 µM]
COC(=O)[C@]12C[C@H](CC(=O)NCC3CCCCC3)C(=O)N(Cc3ccccc3)C1=C[C@H](C(C)C)O[C@@H]2C1CC1,24
Cc1cc(O)cc(=O)n1-c1cccc(Br)c1,-26
COCC(=O)N1C[C@H](C)[C@H](OC)CN(C)C(=O)c2cc(NC(=O)c3cc(C)on3)ccc2OC[C@H]1C,5[16.7 µM]
COc1cccc(NC(=O)N2C[C@H](O)COC[C@H]3O[C@H](CC(=O)NC4Cc5ccccc5C4)CC[C@@H]32)c1,4[16.7 µM]
COc1ccc(C#Cc2c(-c3ccccc3OC)oc3ccccc23)cc1,23
COc1ccccc1CNC(=O)C[C@@H]1CC[C@@H]2[C@H](COc3ccc(NS(=O)(=O)c4ccc(C)cc4)cc3C(=O)N2C)O1,23[16.7 µM]
CC(C)NC(=O)Nc1ccc2c(c1)C(=O)N([C@@H](C)CO)C[C@@H](C)[C@H](CN(C)C(=O)NC(C)C)OCCCC[C@H](C)O2,-86[16.7 µM]
COc1ccc(NC(=O)Nc2ccc3c(c2)C(=O)N(C)C[C@@H](OC)[C@@H](C)CN[C@@H](C)CO3)cc1,4[16.7 µM]
CN1C(=O)c2cc(NC(=O)Nc3ccccc3)ccc2OC[C@H]2O[C@H](CC(=O)O)CC[C@H]21,-20[16.7 µM]
CC(C)NC(=O)Nc1ccc2c(c1)CC(=O)N([C@@H](C)CO)C[C@@H](C)[C@H](CN(C)CC1CC1)O2,2[16.7 µM]
CCC(=O)N1C[C@@H](C)[C@H](OC)CN(C)C(=O)c2ccc(NC(=O)Nc3ccc(Cl)cc3)cc2OC[C@H]1C,-4[16.7 µM]
O=C(C[C@@H]1CC[C@@H]2[C@H](COC[C@@H](O)CN2Cc2ccc(Oc3ccccc3)cc2)O1)Nc1nccs1,45[16.7 µM]
C[C@H](CO)N1C[C@H](C)[C@@H](CN(C)C(=O)Nc2ccc(C(F)(F)F)cc2)Oc2ccc(NC(=O)Nc3ccc(F)cc3)cc2C1=O,5[16.7 µM]
COCC(=O)Nc1ccc2c(c1)C(=O)N(C)[C@H]1CC[C@H](CC(=O)N3CCc4ccccc4C3)O[C@@H]1CO2,-7[16.7 µM]
COc1ccc(CN(C)C[C@H]2Oc3ccc(NC(=O)c4ccncc4)cc3CC(=O)N([C@@H](C)CO)C[C@@H]2C)cc1,-10[16.7 µM]
C[C@H]1CN([C@@H](C)CO)C(=O)Cc2cc(N(C)C)ccc2O[C@H]1CN(C)S(=O)(=O)c1ccccc1,6[16.7 µM]
C[C@@H]1CN([C@@H](C)CO)S(=O)(=O)c2ccc(-c3ccc(C(=O)N(C)C)cc3)cc2O[C@H]1CN(C)C(=O)C1CC1,-10[16.7 µM]
COCC(=O)Nc1ccc2c(c1)OC[C@H](C)N(CC1CC1)C[C@@H](C)[C@@H](OC)CN(C)C2=O,19[16.7 µM]
COc1cccc(CN(C)C(=O)[C@@H](Cc2ccccc2)NC(=O)[C@H]2O[C@@H](n3ccc(=O)[nH]c3=O)[C@H](O)[C@@H]2O)c1,13
CC(C)OC(=O)N(C)C[C@H]1OCc2ccccc2-c2ccccc2C(=O)N([C@@H](C)CO)C[C@@H]1C,6[16.7 µM]
COc1cccc(C(=O)N[C@H](C(=O)N2CCC[C@H]2C(=O)NCCc2ccccc2Cl)C(C)C)c1,-6
C[C@@H]1CN([C@H](C)CO)C(=O)c2c(c3ccccc3n2C)-c2ccccc2CO[C@H]1CN(C)S(=O)(=O)c1cccc(F)c1,49[16.7 µM]
C[C@H]1[C@@H]2C[C@@]3(O[C@H](c4ccccn4)N=C3C[C@@H]1c1ccccc1)N(Cc1ccncc1)C2=O,-24
O=C(N[C@H](c1cccc(Br)c1)[C@@H]1CCCC=C1c1ccccc1)C(F)(F)F,67*
O=C(C[C@@H]1CC[C@H]2[C@@H](COC[C@H](O)CN2C(=O)Nc2ccc(Cl)c(Cl)c2)O1)NCc1ccncc1,-8[16.7 µM]
COc1cccc(NC(=O)C[C@@H]2CC[C@H]3[C@@H](COc4ccc(NC(=O)C5CCOCC5)cc4C(=O)N3C)O2)c1,-11[16.7 µM]
C[C@H](CO)N1C[C@H](C)[C@H](CN(C)Cc2cccc(F)c2)Oc2ncc(C#CC(C)(C)O)cc2C1=O,7[16.7 µM]
CC(C)NC(=O)Nc1ccc2c(c1)C(=O)N(C)[C@H]1CC[C@@H](CC(=O)NCc3ccc(F)cc3)O[C@@H]1CO2,-11[16.7 µM]
CC(C)(C)c1ccc(S(=O)(=O)NCC2CCN(C(=O)C(=O)c3cc4ccccc4o3)CC2)cc1,36
COC(=O)c1cc2c(c3c4cc(C)ccc4n(S(=O)(=O)c4cccc(C)c4)c13)C(=O)N(Cc1ccc(N(C)C)cc1)C2,13
COC(=O)[C@]12C[C@H](CC(=O)NCCC(C)C)C(=O)N(Cc3ccc4c(c3)OCO4)C1=C[C@H](COCc1ccccc1)O[C@@H]2C,-8
CN(C)c1ccc2c(c1)[C@H]1C[C@H](CC(=O)NCc3ccc(Oc4ccccc4)cc3)O[C@H](CO)[C@H]1O2,3[16.7 µM]
C[C@H]1CN([C@@H](C)CO)C(=O)c2cc(NS(C)(=O)=O)ccc2O[C@H]1CN(C)C(=O)Nc1cccc2ccccc12,0[16.7 µM]
COCC(=O)Nc1ccc2c(c1)OC[C@@H](C)N(C(=O)NC(C)C)C[C@H](C)[C@H](OC)CN(C)C2=O,6[16.7 µM]
C[C@@H]1CN([C@@H](C)CO)C(=O)c2cc(NC(=O)CCC(F)(F)F)ccc2O[C@@H]1CN(C)Cc1ccc(Cl)c(Cl)c1,8[16.7 µM]
C=CCN1C[C@@H](COCc2ccccc2)OCCS1(=O)=O,-10
CO[C@H]1CC[C@H]2CCOc3ccc(C#N)cc3C(=O)N(C)CCCC(=O)N(C)C[C@@H]1O2,29[16.7 µM]
CO[C@H]1CN(C)C(=O)c2cc(NC(=O)Nc3ccccc3F)ccc2OC[C@@H](C)N(C(C)=O)C[C@H]1C,9[16.7 µM]

# Continuation:
SMILES,HIV Env fusion
C[C@@H]1CCCCO[C@H](CN(C)C(=O)Nc2ccc(F)cc2)[C@@H](C)CN([C@@H](C)CO)C(=O)c2cc(N(C)C)ccc2O1,7[16.7 µM]
COC(=O)[C@H]1[C@H](CO)[C@H]2Cn3c(ccc(-c4cccnc4)c3=O)[C@H]2N1Cc1cccc(F)c1,-5[16.7 µM]
Cc1ccc(CN(C)C[C@H]2OCc3cn(nn3)CCCC(=O)N([C@H](C)CO)C[C@H]2C)cc1,1[16.7 µM]
C[C@H]1CN([C@@H](C)CO)C(=O)c2c(c3ccccc3n2C)-c2ccccc2CO[C@@H]1CN(C)C(=O)C1CC1,0[16.7 µM]
C[C@H]1CN([C@@H](C)CO)C(=O)c2c(c3ccccc3n2C)-c2ccccc2CO[C@@H]1CN(C)C(=O)c1ccncc1,16[16.7 µM]
C[C@H](CO)N1C[C@H](C)[C@H](CN(C)S(=O)(=O)c2ccccc2)Oc2ccc(NC(=O)Nc3ccc(C(F)(F)F)cc3)cc2C1=O,15[16.7 µM]
CC(C)c1[nH]nc2c1C(c1ccc(Br)cc1)NC2=O (stereo unspecified),7
O=S(=O)(CS(=O)(=O)c1ccc(Br)cc1)c1ccc(Br)cc1,-55
COc1cccc(CNC(=O)[C@H]2CCCN2C(=O)[C@H]2CCCN2C(=O)c2ccc(F)cc2F)c1,1
CO[C@H]1CC[C@H]2CCN(C)C(=O)[C@H](C)[C@H](OC)CN(C)C(=O)c3cccc(C#N)c3OC[C@@H]1O2,-6[16.7 µM]
Cc1ccc(S(=O)(=O)Nc2ccc3c(c2)CC(=O)N([C@H](C)CO)C[C@@H](C)[C@@H](CN(C)Cc2ccc(C(F)(F)F)cc2)O3)cc1,30[16.7 µM]
COC(=O)[C@]12C[C@H](CC(=O)NCc3ccccc3)C(=O)N(Cc3ccccc3)C1=C[C@H](C(C)C)O[C@@H]2C1CC1,-12
CCCNC(=O)N1[C@@H]2c3ccc(-c4ccccc4OC)c(=O)n3C[C@H]1[C@H](CO)[C@H]2C(=O)NCC,-3[16.7 µM]
COCC(=O)Nc1ccc2c(c1)OC[C@@H](C)N(C(=O)c1ccccn1)C[C@H](C)[C@@H](OC)CN(C)C2=O,5[16.7 µM]
CC12C=CC(C)(C3C(=O)NC(=O)C31)C1C3C(=O)NC(=O)C3C12 (stereo unspecified),17
CCOC(=O)Cn1c2c(n(-c3ccc(F)cc3)c1=O)C=C(c1ccccc1)[C@@H](C)C(C(=O)N(C)C1CCCCC1)=C2,?
COc1ccc(CNC(=O)N(C)C[C@H]2OCc3ccccc3-c3c(n(C)c4ccccc34)C(=O)N([C@H](C)CO)C[C@@H]2C)cc1,68*[16.7 µM]
CO[C@@H]1CN(C)C(=O)c2ccc(NC(=O)Nc3ccccc3Cl)cc2OC[C@H](C)NC[C@H]1C,0[16.7 µM]
O=C(N[C@H](C(=O)N1CCC[C@H]1C(=O)NC1CCCC1)C1CCCCC1)c1ccc(Cl)c(Cl)c1,-32
COc1ccccc1NC(=O)N(C)C[C@@H]1OCc2ccccc2-c2ccccc2C(=O)N([C@@H](C)CO)C[C@H]1C,-11[16.7 µM]
COC(=O)[C@]12C[C@H](CC(=O)NCc3cccc(C(F)(F)F)c3)C(=O)N(CCC3=CCCCC3)C1=C[C@H](COCc1ccccc1)O[C@@H]2C,-5
O=c1[nH]c(-c2ccccc2)cn1C1CCN(Cc2ccc(-c3nc4ccc(Br)cc4nc3-c3ccccc3)cc2)CC1,10
C[C@@H]1CN([C@H](C)CO)C(=O)c2cc(NC(=O)c3ccccc3)ccc2O[C@@H](C)CCCCO[C@@H]1CN(C)C(=O)c1ccccc1,-3[16.7 µM]
COc1ccccc1NC(=O)Nc1ccc2c(c1)C(=O)N(C)C[C@@H](OC)[C@H](C)CN(C)[C@@H](C)CO2,3[16.7 µM]
COc1ccc2c3c(n(C)c2c1)[C@@H](CO)N(C(=O)CN1CCOCC1)CC31CN(Cc2ccncc2)C1,-4[16.7 µM]
CN1C[C@@H](O)COC[C@H]2O[C@@H](CC(=O)NC3CCC3)CC[C@@H]21,-14[16.7 µM]
Cc1noc(C)c1NC(=O)Nc1ccc2c(c1)C(=O)N(C)[C@@H]1CC[C@@H](CC(=O)NCc3ccc(Cl)cc3)O[C@@H]1CO2,-69[16.7 µM]
C#CCN1CC(COc2ccccc2)Oc2cccc(Oc3ccc(OC)cc3)c2S1(=O)=O (stereo unspecified),31

# 7 of the compounds above, with values ahead of the structure:
HIV Env fusion | mol
-10[16.7 µM] | COc1ccc(CN(C)C[C@H]2Oc3ccc(NC(=O)c4ccncc4)cc3CC(=O)N([C@@H](C)CO)C[C@@H]2C)cc1
-6 | COc1cccc(C(=O)N[C@H](C(=O)N2CCC[C@H]2C(=O)NCCc2ccccc2Cl)C(C)C)c1
1[16.7 µM] | COc1ccc(S(=O)(=O)N(C)C[C@H]2Oc3ccc(NS(=O)(=O)c4ccc(F)cc4)cc3CC(=O)N([C@@H](C)CO)C[C@H]2C)cc1
-69[16.7 µM] | Cc1noc(C)c1NC(=O)Nc1ccc2c(c1)C(=O)N(C)[C@@H]1CC[C@@H](CC(=O)NCc3ccc(Cl)cc3)O[C@@H]1CO2
-4[16.7 µM] | COc1ccc2c3c(n(C)c2c1)[C@@H](CO)N(C(=O)CN1CCOCC1)CC31CN(Cc2ccncc2)C1
9[16.7 µM] | CO[C@H]1CN(C)C(=O)c2cc(NC(=O)Nc3ccccc3F)ccc2OC[C@@H](C)N(C(C)=O)C[C@H]1C
1 | COc1cccc(CNC(=O)[C@H]2CCCN2C(=O)[C@H]2CCCN2C(=O)c2ccc(F)cc2F)c1
